Calb FLC: C. albicans growth inhibition with fluconazole, primary screen, CaCi-2 strain, Alamar Blue fluorescence. C. albicans CaCi-2 (fluconazole-resistant clinical isolate) + fluconazole, 48 h. growth inhibition, % (concentration not given with the values). hit rate 0.57% among 300,000;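 active = most replicates above 75%; inconclusive = exactly half above 75%; inactive = most below 75%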;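 also: all wells also contain fluconazole at 8 µg/ml as a sub-toxic cotreatment; 0% = median of DMSO wells and 100% = median of geldanamycin control wells; wells of about 8 µL received 7.5 nL stock; the first replicate is given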
rRNA inh HTS: reduced GFP signal of wild-type E. coli, primary screen, bacterial rRNA inhibitor project, GFP/RFP fluorescence, OD600, single point; E. coli WT GFP vs humanized-ribosome RFP mutants, 24 h; active compounds read low; DMSO median 0, no signal -100; GFP signal change (wild-type ribosome), % (no concentration beside the values); hit rate 1.6% among 350,000;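 active = significant combined selectivity score with lowered wild-type GFP, culture density cut under 30%, mutant RFP and density less affected; inactive = any of these conditions unmet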; also: one replicate is shown; some compounds called inactive have numbers as strong as hits
LANA-H2B inh: blockers of LANA interaction with H2A/H2B – biochemical, FP readout, HTS, primary screen; Protein LANA1 (Human herpesvirus 8 type P (isolate GK18)), Q9QR71; AID 2629, 2010; cell-free LANA-H2A/H2B peptide, fluorescence polarization; inhibition, % (test concentration not listed); hit rate 0.6% among 320,000; in the data active = inhibition mostly above about 10%, no sharp cut-off; inactive = mostly below about 6.7%;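 also: stock transfer was 7.5 nL into about 10 µL; 0% = median of vehicle wells and 100% = median of positive control wells; one replicate is shown; the record names a cut of 25% in any replicate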
ALR H2O2 inh: inhibitors of human ALR sulfhydryl oxidase, primary screen, biochemical, H2O2 detection, HRP-luminol luminescence, single point; AID 485317, 2010; hit rate 3.8% among 290,000; purified ALR, DTT oxidation; inhibition, % (no concentration beside the values); FAD-linked sulfhydryl oxidase ALR (Homo sapiens), P55789;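 active = mean and each replicate at 75% or more; inconclusive = only one of the two met; inactive = neither met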;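 also: stock transfer was 7.5 nL into about 7.5 µL; 0% = neutral wells and 100% = wells with inactivated enzyme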
Target sequence (P55789 whole entry, looked up): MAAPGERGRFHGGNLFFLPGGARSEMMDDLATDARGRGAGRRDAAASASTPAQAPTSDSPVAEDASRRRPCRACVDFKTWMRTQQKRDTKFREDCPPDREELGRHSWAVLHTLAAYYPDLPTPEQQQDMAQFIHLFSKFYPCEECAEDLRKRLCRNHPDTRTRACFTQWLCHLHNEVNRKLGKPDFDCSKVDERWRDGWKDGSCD
Beta2AR agonist: beta2AR agonists driving receptor internalization, primary screen, cell-based, FAP fluorogen, flow cytometry; Am2.2-beta2AR cells; reference of the scale not given here; response, % (no concentration beside the values); hit rate 0.43% among 340,000; Beta-2 adrenergic receptor (Homo sapiens), P07550; AID 504454, 2011;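 active = response above a set limit, near 3 SD of response in nonfluorescent compounds, cut at about 42% in these data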;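 also: stock transfer was 100 nL into about 11 µL; a reference agonist was the positive control; negative values mostly stem from fluorescent compounds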
Target sequence (P07550 whole entry, looked up): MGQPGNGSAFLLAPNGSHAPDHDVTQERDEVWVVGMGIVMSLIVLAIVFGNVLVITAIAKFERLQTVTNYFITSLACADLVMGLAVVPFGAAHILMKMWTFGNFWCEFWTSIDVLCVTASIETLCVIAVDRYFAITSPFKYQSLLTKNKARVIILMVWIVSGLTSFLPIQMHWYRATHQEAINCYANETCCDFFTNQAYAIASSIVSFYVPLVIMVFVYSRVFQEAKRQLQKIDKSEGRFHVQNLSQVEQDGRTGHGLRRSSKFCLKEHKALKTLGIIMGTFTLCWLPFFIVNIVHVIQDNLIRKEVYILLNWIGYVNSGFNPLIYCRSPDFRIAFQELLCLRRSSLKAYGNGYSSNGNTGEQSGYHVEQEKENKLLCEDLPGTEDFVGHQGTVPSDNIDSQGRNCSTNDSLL
Bfl-1 A1 inh: caspase 3/7 activation in MEF A1-2A-BIM cells, primary screen, A1 inhibitor project, cell-based, luminescence, HTS; Caspase-Glo 3/7 luminescence, 3 h; percent of clofoctol response, vehicle zero; caspase activation, % (concentration not given with the values); hit rate 0.066% among 330,000; AID 2462, 2010;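 active = over half of replicate activation scores above 10%, or exactly half above 10 with the replicate mean above 10; inconclusive = replicate mean below 10 yet half the replicates above 10; inactive = over half of replicates below 10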;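 also: wells of about 30 µL received 50 nL stock; many hits fall short of the cut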
Beta cell apopt: inhibitors of cytokine-induced beta cell apoptosis, primary screen, luminescence; AID 435005, 2010; INS-1E cytokine-induced death, ATP luminescence, 48 h; percent of positive-control rescue, neutral wells zero; hit rate 0.8% among 300,000; protection from apoptosis, % (no concentration beside the values);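 active = all replicates at 75% or more, or half of them and the mean; inconclusive = half reach 75% but not the mean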;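 also: 0% = cytokine-treated negative control wells and 100% = positive control rescue; higher means more ATP so stronger rescue from cytokine killing; wells of about 40 µL received 100 nL stock; the first replicate is given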
T cruzi inh: inhibitors of intracellular T. cruzi growth, primary screen, luminescence, NIH3T3 host cells; inhibition, % (concentration not given with the values); hit rate 1.4% among 300,000; T. cruzi beta-gal in NIH3T3, 90 h; AID 1885, 2009;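 active = mean inhibition across valid replicates above about 55%, limit read from the data; inconclusive = mean below that limit but half or more replicates reach it; inactive = mean below it, under half of replicates reach it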;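 also: signal also drops with host cell toxicity which is not excluded here; 0% = plate median of DMSO wells and 100% = zero luminescence signal; higher percent means less beta-gal luminescence so fewer parasites; stock transfer was 50 nL into about 50 µL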
rRNA inh HTS OD600: second read-out of rRNA inh HTS, no call of its own (marks repeat the call); OD600 change, %; measured here: OD600 growth;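 optical density of the mix in the first replicate; 0 = DMSO median and -100 = no signal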
rRNA inh HTS RFP: recorded beside rRNA inh HTS, whose call it bears; RFP signal change, %; measured here: RFP humanized mutant strains;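 first replicate; 0 = DMSO median and -100 = no signal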
The depositor's hits bear a star; ? = inconclusive; · = no result given.

SMILES	Calb FLC	rRNA inh HTS	rRNA inh HTS OD600	rRNA inh HTS RFP	LANA-H2B inh	ALR H2O2 inh	Beta2AR agonist	Bfl-1 A1 inh	Beta cell apopt	T cruzi inh
Cn1nnc(NC(=O)c2ccc(Br)o2)n1	3	25	19	-0.9	-1.7	14	-1	-0.2	-18	-13
CN(CC(=O)Nc1ccc(Cl)cc1)C(=O)c1cccc(S(=O)(=O)NCc2ccccc2)c1	10	1	0	-1.9	-0.5	8	10	0.6	3	7
C/C(=N\NC(=O)C1COc2ccccc2O1)c1ccc(C)o1 (configuration not stated)	1	·	·	·	-0.5	2	4	-0.5	-6	-5
CCOC(=O)C(C(=O)N(C)C)c1ncc(C(F)(F)F)cc1Cl (configuration not stated)	-12	·	·	·	-4.3	-3	5	0.0	-4	0
CSc1nc(N)c(C#N)c(-c2ccc(Cl)cc2)c1C#N	1	·	·	·	4.6	-16	-4	0.2	8	9
N#Cc1ccc(/C=C(\C(=O)C(=O)O)c2ccc3ccccc3n2)cc1	-3	6	4	-1.2	2.5	-8	4	-2.6	2	-12
Cc1cccc(NC(=O)CSc2nnc(-c3cnccn3)n2Cc2ccco2)c1	3	·	·	·	0.5	1	-2	0.2	-1	-5
CCOc1ccc(C2C(C#N)=C(N)N(c3sc4c(c3C#N)CCCC4)C3=C2C(=O)CCC3)cc1 (configuration not stated)	-2	·	·	·	-3.9	-13	0	-0.3	2	35
O=C(N/N=C\c1ccc(-c2ccccc2[N+](=O)[O-])o1)C1COc2ccccc2O1 (configuration not stated)	-2	·	·	·	0.5	75*	3	-0.4	3	-7
Cc1nn(-c2ccccc2)c(C)c1NC(=O)COC(=O)c1cc(Br)ccc1O	-5	10	12	-0.8	6.1	-2	14	-0.1	-2	-12
Cn1c(CNc2ccccc2O)nc2ccccc21	0	-4	-6	6.0	0.9	33	-1	-1.7	-9	-18
CC(=O)c1c(C)[nH]c(C(=O)OCC(=O)c2c[nH]c3ccccc23)c1C	·	·	·	·	3.0	21	9	-1.1	3	·
CCOC(=O)C1=NOC(CNc2ncc(C(F)(F)F)cc2Cl)C1 (configuration not stated)	?	-3	-9	0.7	-0.7	-1	8	0.6	1	-12
CC(=O)c1cccc(NC(=O)N2CCCC2C(=O)Nc2ccc3c(c2)OCCO3)c1 (configuration not stated)	-17	4	9	0.7	1.9	-1	-3	-0.1	-2	-1
CCNC(=O)NC(=O)COC(=O)C1CSC2(C)CCC(=O)N12 (configuration not stated)	-8	24	19	2.4	-10	-13	0	0.4	1	-8
Cc1cc(C)cc(NS(=O)(=O)c2c(C)[nH]c(=O)[nH]c2=O)c1	13	11	13	1.0	0.4	-3	-5	-0.5	-3	-12
NC(=O)c1ccsc1NC(=O)CSc1n[nH]c(N)n1	·	1	4	-1.7	9.1	24	·	-1.1	0	·
CN(C)CCCN(C(=O)c1ccc2ccccc2c1)c1nc2cc3c(cc2s1)OCO3	-9	-38	-65	24	-3.8	1	24	0.8	-20	30
Cn1c(=O)c2cc(NC(=O)c3ccccc3Cl)c(=O)oc2n(C)c1=O	8	·	·	·	2.4	11	6	0.3	·	-19
Nn1c(SCC(=O)Nc2ccc3c(c2)OCO3)nnc1C1CCCCC1	0	·	·	·	0.8	-3	-8	0.1	-8	6
CCOC(=O)c1c(-c2ccc(C)cc2)csc1NC(=O)c1cc2ccccc2oc1=O	-4	16	13	2.9	-2.5	0	-2	-0.8	3	1
CCCN(CCC)CCCNC(=O)C(NS(=O)(=O)c1ccc2c(c1)CCC(=O)N2)c1ccccc1 (configuration not stated)	-17	4	9	1.1	4.9	-3	-3	-0.3	-2	-3
Cc1nc2ccccc2c2c1C(=O)N(C1CCCCCCC1)C2=O	-1	8	16	-0.8	0.1	4	6	0.1	-1	-14
O=C(c1cccc(S(=O)(=O)N2CCCC2)c1)N1CCN(Cc2ccccc2)CC1	·	3	1	0.6	5.9	0	6	0.2	3	·
COCCCNC(=O)CS(=O)Cc1nc(-c2ccccc2C)oc1C (configuration not stated)	-3	1	7	-5.1	-1.8	99*	2	0.2	-1	21

(next part)
SMILES	Calb FLC	rRNA inh HTS	rRNA inh HTS OD600	rRNA inh HTS RFP	LANA-H2B inh	ALR H2O2 inh	Beta2AR agonist	Bfl-1 A1 inh	Beta cell apopt	T cruzi inh
Cc1ccnc(NC(=O)C2COc3ccccc3O2)c1 (configuration not stated)	-4	6	2	0.8	1.5	2	1	-2.3	-35	1
Nc1c(NCCCN2CCOCC2)c2ccccc2oc1=O	0	0	8	0.0	-1.8	?	-2	-1.0	-5	-2
Cc1cccc(NC(=O)CS(=O)CC(=O)Nc2cnc3ccccc3c2)c1C (configuration not stated)	7	-7	-11	-1.4	-1.0	-2	-9	-0.1	·	12
CCOC(=O)C1CCN(S(=O)(=O)c2cnc[nH]2)CC1	5	·	·	·	-1.8	·	-2	0.6	1	-6
CN(C)CCCn1c(SCCN2C(=O)c3ccccc3C2=O)nc2ccccc2c1=O	7	-4	-4	-0.1	3.1	25	7	0.8	-6	6
O=C(COC(=O)[C@@H]1CC(O)CN1S(=O)(=O)c1ccc2c(c1)OCCO2)Nc1cc(F)ccc1F (some centres not stated)	·	-9	-13	-3.7	-1.7	-1	-6	0.9	0	·
CC(C)c1nnc(NC(=O)CS(=O)(=O)Cc2ccccc2)s1	3	13	15	0.2	1.7	-6	4	?	-6	1
COc1ccccc1C(=O)Nc1nnc(C)s1	4	·	·	·	-4.1	-4	-3	-0.3	-1	-6
CC1CN(C(=O)c2cc(S(=O)(=O)N3CCCC3)ccc2Cl)CC(C)O1 (configuration not stated)	0	9	9	3.1	·	·	-3	·	·	2
C[C@H](NC(=O)c1[nH]cnc1C(=O)Nc1ccc(CNC(=O)OC(C)(C)C)cc1)C(=O)OCc1ccccc1	-9	1	13	-11	0.1	-15	48*	-0.5	-5	-10
CC(NCCS(=O)(=O)c1ccc(Cl)cc1)c1cccc(Cl)c1 (configuration not stated)	-2	-14	-36	-3.9	-3.9	0	2	0.1	-10	20
O=C(Nc1ccc(N2CCOCC2)cc1N1CCOCC1)c1ccc(F)cc1	·	19	4	-0.5	-6.7	42	-1	0.4	0	·
CC(=O)c1cccc(NC(=O)C2CC(=O)N(CCc3ccccc3)C2)c1 (configuration not stated)	12	4	3	2.4	-2.5	-3	-10	-0.4	-5	-5
C/C(=N\NC(=O)COc1cccc2ccccc12)c1cccs1	4	-6	-9	3.9	2.9	-15	-5	0.5	-6	4
Cc1cccnc1NC(=O)c1ccc2c(c1)OCCO2	0	7	21	-1.1	1.8	-22	-2	-0.3	-4	1
COc1cccc(NS(=O)(=O)Cc2ccccc2)c1	-23	·	·	·	-1.0	-6	0	1.0	-8	0
COc1ccccc1NC(=O)CSc1nnc(CC(=O)Nc2cccc(C(F)(F)F)c2)n1C	-5	·	·	·	1.4	-24	-10	-0.1	-3	-10
Cc1ccc(NS(=O)(=O)c2ccc(C(=O)N3CCOCC3)cc2)cc1	-7	5	5	-3.6	4.4	·	4	0.6	·	-26
CCN(C(=O)COc1nc(C)cc(C)c1C#N)c1ccccc1	3	5	4	-1.8	4.5	0	-2	-0.1	-6	-5
O=C(O)c1ccc(NCc2nc3ccccc3n2Cc2ccccc2F)cc1	12	0	2	-0.9	-3.5	2	3	0.5	-1	0
COc1cc(CNc2nc3ccccc3s2)cc(OC)c1OC	2	4	-7	3.8	2.7	·	-2	0.2	2	1
COCC1CCN(C(=O)c2oc3c(F)cccc3c2C)C1 (configuration not stated)	-4	-8	1	-3.7	-2.7	-9	0	0.5	-2	-3
CC(=O)N1CCN(c2ccc(NC(=O)c3ccc4c(c3)OCCO4)cc2)CC1	32	5	13	0.0	-4.9	2	7	-0.2	-7	4
Cc1cc(C)cc(NC(=O)N(C)Cc2ccccc2)c1	-5	0	5	-1.4	0.6	1	-7	0.8	-4	-5
O=C1c2ccccc2C(=O)N1CCc1nc(-c2ccncc2)no1	4	·	·	·	4.9	17	-9	0.0	-6	-2

Next records
SMILES	Calb FLC	rRNA inh HTS	rRNA inh HTS OD600	rRNA inh HTS RFP	LANA-H2B inh	ALR H2O2 inh	Beta2AR agonist	Bfl-1 A1 inh	Beta cell apopt	T cruzi inh
CCc1noc(C)c1C(=O)Nc1ccc(F)c(F)c1	-6	7	6	0.0	0.0	6	-1	0.3	2	-21
O=C1CCCc2ccccc2N1Cc1ccccc1Cl	21	·	·	·	8.6	-1	-1	1.7	-7	2
N#Cc1ccc2c(c1)nnn2-c1ccccc1	-5	15	4	14	0.6	1	-4	0.9	1	5
COc1ccc2c(c1OC)C(=O)OC2Nc1ncc(Br)cc1Br (configuration not stated)	-23	·	·	·	3.0	-6	0	0.0	-11	16
NS(=O)(=O)c1ccc(NC(=O)CN2C(=O)c3ccccc3C2=O)cc1	5	20	12	3.2	-1.9	-4	2	0.8	-3	-2
CC1=C(C(=O)N2CCOCC2)C(c2ccc(OC(F)F)cc2)NC(=S)N1c1ccccc1 (configuration not stated)	13	5	-10	-2.5	-0.4	-6	-2	0.5	-6	-5
COC(=O)c1ccc(NC(C)C(=O)OC)c([N+](=O)[O-])c1 (configuration not stated)	7	·	·	·	4.4	6	-4	0.3	·	14
CN1CCN(CC(=O)N/N=C\c2c[nH]c3ccccc23)CC1	3	12	1	-4.4	6.9	-4	·	0.0	-3	2
COC(=O)c1ccc(C(=O)NC2CCCc3c2cnn3-c2cc(F)cc(F)c2)nc1 (configuration not stated)	-5	-6	-8	0.8	8.4	-2	0	0.0	2	-9
Cc1ccc2c(c1)c1c(n2CC(O)Cn2nc(C)c(Br)c2C)CCCC1 (configuration not stated)	10	·	·	·	1.1	-37	6	·	-6	27
O=[N+]([O-])c1ccccc1Oc1ncccc1[N+](=O)[O-]	8	-3	-2	0.5	-1.8	-8	7	0.2	-8	-1
CN(C(=O)COC(=O)/C=C/c1cccs1)C1CCCCC1	·	1	-3	0.3	-3.0	-24	-3	2.1	0	·
CCOC(=O)C1=C(C)NC(=S)NC1c1ccc(OC(=O)c2ccco2)cc1 (configuration not stated)	-2	·	·	·	1.6	4	0	0.2	7	-7
CC(C)Cn1c(SCC(=O)N2CCCCC2)nc2ccccc2c1=O	-5	·	·	·	-2.0	-3	-9	0.4	1	25

Gathered by group, those above containing two or more sulfur atoms
SMILES	Calb FLC	rRNA inh HTS	rRNA inh HTS OD600	rRNA inh HTS RFP	LANA-H2B inh	ALR H2O2 inh	Beta2AR agonist	Bfl-1 A1 inh	Beta cell apopt	T cruzi inh
NC(=O)c1ccsc1NC(=O)CSc1n[nH]c(N)n1	·	1	4	-1.7	9.1	24	·	-1.1	0	·
CC(C)c1nnc(NC(=O)CS(=O)(=O)Cc2ccccc2)s1	3	13	15	0.2	1.7	-6	4	?	-6	1

Bioassay records: PubChem, several laboratories

This is a subset; rates above refer to the full screens.
